Source: PubChem (ICCB-Longwood Screening Facility, Harvard Medical School)
PV pol inh – inhibitors of poliovirus RNA polymerase binding and polymerization; poliovirus polymerase elongation, fluorescence polarization; stronger effect = lower value; P03300; AID 588519; % elongation, % (compound at 16.7 µg/mL); actives 0.66% (n = 150,000); in the data active means % elongation below about 90%; further: some results filed as inactive read as strong as hits
Target sequence (P03300 1749-2209 limits assumed): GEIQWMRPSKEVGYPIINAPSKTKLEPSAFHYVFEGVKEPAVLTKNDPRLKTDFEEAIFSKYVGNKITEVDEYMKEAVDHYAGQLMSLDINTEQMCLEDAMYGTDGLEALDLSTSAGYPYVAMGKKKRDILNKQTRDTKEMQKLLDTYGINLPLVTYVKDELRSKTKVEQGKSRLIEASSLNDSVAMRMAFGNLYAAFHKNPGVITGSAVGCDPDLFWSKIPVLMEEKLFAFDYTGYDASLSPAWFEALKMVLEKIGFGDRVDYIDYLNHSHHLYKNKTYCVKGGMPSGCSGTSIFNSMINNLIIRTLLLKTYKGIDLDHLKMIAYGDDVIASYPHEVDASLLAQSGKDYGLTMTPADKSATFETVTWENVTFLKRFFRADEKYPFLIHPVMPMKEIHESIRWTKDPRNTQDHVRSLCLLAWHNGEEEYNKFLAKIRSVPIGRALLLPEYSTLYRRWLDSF
PV pol inh intensity – recorded beside PV pol inh, whose call it bears; % elongation; measured here: total intensity read-out; formula for this scale not given here;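 total fluorescence in place of polarization; lower means less elongation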
An asterisk follows results filed as active.

SMILES	PV pol inh	PV pol inh intensity
CCOCCCNC(=O)CCC(=O)NNc1nc2ccccc2c2nc(C)nn12	36*	52*
O=C(Nc1ccc2c(c1)CCCN2C(=O)c1cccs1)c1ccc(F)c(F)c1	108	106
COc1ccc(-n2nnnc2SCC(=O)NCCc2ccccc2)cc1	104	110
COc1ccccc1CNC(=O)CCCCn1c(=O)c2ccccc2n(CC(=O)Nc2c(C)cc(C)cc2C)c1=O	109	106
Cc1ccc(NC(=O)Cc2ccc(-n3c(C)nc4cccnc43)cc2)cc1C	102	97
COc1ccc(C(=O)Nc2ccc3nc4n(c(=O)c3c2)CCCCC4)cc1OC	112	109
O=C(Nc1cc(F)ccc1F)N1CCC(CN2CCCC2)CC1	112	114
Cc1cc(C)c(NC(=O)C2CCN(c3nc4ccccc4[nH]3)CC2)c(C)c1	109	114
Cc1ccc(NC(c2cccc(Cl)c2)c2nnc(-c3ccccc3)o2)cc1F (stereo not given)	105	110
CCn1c(C(=O)NCc2ccccc2C)cc2oc3ccccc3c21	104	112
Cc1ccc(CNC(=O)C(=O)NCC(c2cccs2)S(=O)(=O)c2ccc(C)cc2)cc1 (stereo not given)	102	102
CCOc1ccc(S(=O)(=O)N2CCN(c3cccc(C(F)(F)F)c3)CC2)cc1OCC	104	104
Cc1c(C(=O)Nc2cccc(F)c2)sc2nc(-c3cc4ccccc4oc3=O)[nH]c(=O)c12	64*	72*
CC(C)CCn1c(=O)c2sccc2n2c(CCCC(=O)Nc3ccc(F)c(Cl)c3)nnc12	108	113
CCOc1ccc(N(C)S(=O)(=O)c2ccc3c(c2)CCCN3C(C)=O)cc1	108	106
O=C(CSc1nc(Nc2ccc(F)cc2)c2ccccc2n1)c1ccc(F)cc1	110	100
O=C(Cn1c(=O)oc2ccccc21)NCc1ccc(Cl)cc1	105	99
Cc1cn2c(=O)cc(COC(=O)c3ccc(NC(=O)COc4ccc(C)c(C)c4)cc3)nc2s1	110	117
Cc1cc2c(n1-c1ccc(C(=O)NCc3ccc(OC(C)C)cc3)cc1)CCCC2	105	104
COc1cc(-n2c(=O)c3ccccc3n(Cc3cccc(Cl)c3)c2=O)cc(OC)c1OC	105	102
O=C(NCCCN1CCN(c2ccc(F)cc2)CC1)c1ccc2nc(Cc3ccccc3)oc2c1	99	104
COc1cccc(CNC(=O)c2[nH]c3cc(C)ccc3c2Sc2ccccc2)c1	107	112
Cc1cc(C)cc(S(=O)(=O)Nc2cccc(-c3ccc(N4CCOCC4)nn3)c2)c1	98	95
COc1ccccc1N1CCN(C(=O)CN2C(=O)COc3ccc(S(=O)(=O)N4CCOCC4)cc32)CC1	102	106
CN(C)c1ccc(Nc2ncnc3sc4c(c23)CCCC4)cc1	110	106
Cc1cccn2c(=O)cc(COc3cccc(NC(=O)Nc4cccc(Cl)c4)c3)nc12	111	114
COc1ccc(CN2CCc3nc(Nc4ccccc4)ncc3C2)c(OC)c1OC	111	109
Cc1ccc(-c2csc(=Nc3ccc(F)cc3)n2Cc2ccc3c(c2)OCO3)cc1C	99	98
COC(=O)c1sc2cccc(F)c2c1S(=O)(=O)NCc1ccc(F)cc1	108	114
COc1ccc(NC(=O)Cn2cc(C(=O)c3ccc(C)c(C)c3)c(=O)c3cc(OC)ccc32)cc1	103	105
COc1ccc(S(=O)(=O)N(CCc2ccccc2)CC(=O)Nc2cc(Cl)ccc2C)cc1	108	111
CCOCCCNC(=O)c1cnc2sc(N3CCCCC3)nn2c1=O	102	110
COc1cc2c(C(=O)N3CCN(c4ccc(F)cc4)CC3)cn(CC(C)C)c(=O)c2cc1OC	104	111
Cc1nc2ccn(Cc3ccco3)c(=O)c2cc1C(=O)NCc1ccccc1	107	112
Cc1oc(-c2ccc(C(=O)Nc3cccc(C(F)(F)F)c3)cc2)nc1CSc1ccccc1	106	100
Cc1ccc(NC(=O)Cn2ccn(Cc3ccc(Cl)cc3)c(=O)c2=O)cc1C	112	104

15 neighbouring entries from above:
SMILES	PV pol inh	PV pol inh intensity
COc1cccc(CNC(=O)c2[nH]c3cc(C)ccc3c2Sc2ccccc2)c1	107	112
Cc1cc(C)cc(S(=O)(=O)Nc2cccc(-c3ccc(N4CCOCC4)nn3)c2)c1	98	95
COc1ccccc1N1CCN(C(=O)CN2C(=O)COc3ccc(S(=O)(=O)N4CCOCC4)cc32)CC1	102	106
CN(C)c1ccc(Nc2ncnc3sc4c(c23)CCCC4)cc1	110	106
Cc1cccn2c(=O)cc(COc3cccc(NC(=O)Nc4cccc(Cl)c4)c3)nc12	111	114
COc1ccc(CN2CCc3nc(Nc4ccccc4)ncc3C2)c(OC)c1OC	111	109
Cc1ccc(-c2csc(=Nc3ccc(F)cc3)n2Cc2ccc3c(c2)OCO3)cc1C	99	98
COC(=O)c1sc2cccc(F)c2c1S(=O)(=O)NCc1ccc(F)cc1	108	114
COc1ccc(NC(=O)Cn2cc(C(=O)c3ccc(C)c(C)c3)c(=O)c3cc(OC)ccc32)cc1	103	105
COc1ccc(S(=O)(=O)N(CCc2ccccc2)CC(=O)Nc2cc(Cl)ccc2C)cc1	108	111
CCOCCCNC(=O)c1cnc2sc(N3CCCCC3)nn2c1=O	102	110
COc1cc2c(C(=O)N3CCN(c4ccc(F)cc4)CC3)cn(CC(C)C)c(=O)c2cc1OC	104	111
Cc1nc2ccn(Cc3ccco3)c(=O)c2cc1C(=O)NCc1ccccc1	107	112
Cc1oc(-c2ccc(C(=O)Nc3cccc(C(F)(F)F)c3)cc2)nc1CSc1ccccc1	106	100
Cc1ccc(NC(=O)Cn2ccn(Cc3ccc(Cl)cc3)c(=O)c2=O)cc1C	112	104

Next results follow.
SMILES	PV pol inh	PV pol inh intensity
O=C(C1CCN(S(=O)(=O)c2ccc(Br)s2)CC1)N1CCN(c2ccc(F)cc2)CC1	111	111
COc1cc(NC(=O)Cn2c(=O)n(CC3CCCO3)c(=O)c3cc(OC)c(OC)cc32)cc(OC)c1 (stereo not given)	112	111
CCOC(=O)c1c(NC(=O)CCCOc2ccc(C(C)(C)C)cc2)sc2c1CCC2	97	101
CNC(=O)CN1C(=O)c2cccnc2Sc2ccccc21	103	102
COc1ccc(CCC(=O)NCc2nc3cccnc3n2Cc2ccccc2)cc1	113	123
COc1ccc(-n2c(=O)c3ccccc3n(CC(=O)NCCc3ccc(OC)c(OC)c3)c2=O)cc1	107	108
O=C(NCC(c1ccc2c(c1)OCO2)N1CCOCC1)c1c(F)cccc1F (stereo not given)	99	106
Cc1ccc(C(=O)N2c3nc(-c4ccco4)nn3C3(CCCCC3)[C@@H]3CCCC[C@@H]32)cc1	105	105
COc1cc(-c2noc(C3CC(=O)N(c4cc(C)ccc4C)C3)n2)cc(OC)c1OC (stereo not given)	103	110
Cc1nc2scc(C)n2c(=O)c1S(=O)(=O)Nc1cccc(O)c1	105	105
CCN1C(C(=O)c2ccccc2)=C(OC(=O)c2ccc(OC)cc2)c2ccccc2S1(=O)=O	113	116
O=C(Nc1ccc(OC(F)(F)F)cc1)c1cccn(Cc2ccccc2Cl)c1=O	111	97
Cc1ccc(-c2cn3nc(N4CCCC(C(=O)NCc5ccccc5F)C4)sc3n2)cc1 (stereo not given)	101	106
CCOc1ccc(CNC(=O)Nc2ccc3c(c2)N(C)C(=O)c2ccccc2S3)cc1	104	110
Cc1c(CC(=O)N2CCCCC2)c(=O)oc2c(C)c(O)ccc12	109	113
CCOc1ccccc1NC(=O)CSc1ncc2c(n1)-c1ccccc1N(CC)S2(=O)=O	115	113
COc1ccccc1Cn1c(CNS(=O)(=O)c2ccc(C(C)C)cc2)nc2cccnc21	112	122
COCCNC(=O)Cn1c(=O)n(CCCCCC(=O)NCc2ccccc2Cl)c(=O)c2sccc21	105	108
Cc1ccc(NC(=O)c2ccc(CN3CC(=O)N4CCCCC4C3=O)cc2)c(C)c1 (stereo not given)	116	112
Cc1ccccc1Cn1cccc(C(=O)Nc2nc3ccccc3s2)c1=O	106	113
COc1ccc(-c2noc(CNC(=O)c3ccc(OC)cc3OC)n2)cc1	112	109
CCOc1cccc2sc(N3CCN(C(=O)c4ccc5c(c4)CCCC5)CC3)nc12	107	105
COc1cc(-c2nc3ccc(C)cn3c2Nc2ccc(Cl)cc2)ccc1O	102	105
O=C(NCC(c1cccnc1)N1CCN(Cc2ccccc2)CC1)C(=O)Nc1ccc(Cl)cc1 (stereo not given)	110	113
CCCN(CCC)CCNC(=O)CN1C(=O)COc2ccc(S(=O)(=O)N3CCOCC3)cc21	103	104
COc1ccc(CN(C)c2ccc(-c3nc(-c4ccc(OC)c(OC)c4)no3)cc2[N+](=O)[O-])cc1	107	114
COc1ccccc1-n1c(=O)n(C)c2c(C(N)=O)nc(-c3cc(OC)c(OC)c(OC)c3)nc21	104	98
CCOc1ccc(Nc2sc(C(=O)c3cccc(OC)c3)c(N)c2S(=O)(=O)c2ccccc2)cc1	108	116
COc1ccc(N2CCN(C(=O)c3ccc4c(c3)N(Cc3cc(C)ccc3C)C(=O)c3ccccc3S4=O)CC2)cc1 (stereo not given)	108	104
Cc1ccccc1CNC(=O)C1=Cc2ccccc2OC1	109	112
COc1cccc(NC(=O)CCc2c(C)nc3ncnn3c2C)c1	107	111
N#Cc1cc2c(nc1SCC(=O)Nc1cccc(C(F)(F)F)c1)C1CCN2CC1	106	110
O=C(COc1ccc(Cl)cc1)Nc1ccc2nc(SCC(=O)N3CCOCC3)sc2c1	104	97
COc1ccc(Nc2nn3c(=O)c4cc5c(cc4nc3s2)OCO5)c(OC)c1	102	99
Cc1cc(C)cc(NC(=O)C(NS(=O)(=O)c2cccc3nsnc23)c2ccccc2)c1 (stereo not given)	103	106
CC(C)CCNC(=O)c1c2c(nc3ccccc13)C(=O)N(C1CCCCC1)C2	107	118

Pulled by structure from the list above (2):
SMILES	PV pol inh	PV pol inh intensity
COc1ccccc1-n1c(=O)n(C)c2c(C(N)=O)nc(-c3cc(OC)c(OC)c(OC)c3)nc21	104	98
CC(C)CCNC(=O)c1c2c(nc3ccccc13)C(=O)N(C1CCCCC1)C2	107	118

More entries:
SMILES	PV pol inh	PV pol inh intensity
CC1CN(C(=O)CCC(=O)NCc2cccs2)c2ccccc2O1 (stereo not given)	111	115
C=Cc1ccc(Cn2c(C(=O)O)c(CNC3CCCC3)c3ccc(C)cc32)cc1	107	113
Cc1nc(N2CCCC2)c2c(C(=O)N3CCN(c4cccc(Cl)c4)CC3)c(C)oc2n1	102	99
CCCC(=O)Nc1cccc(OCc2cc(=O)n3cccc(C)c3n2)c1	106	109
CCCOC(=O)CSc1nnc2ccc3ccccc3n12	112	108
O=C(Nc1cc(C(F)(F)F)ccc1Cl)c1cnn(-c2ccccc2)c1-n1cccc1	101	108
Cc1c(C)n(Cc2ccccc2)c2ccc(C(=O)NCc3ccco3)cc12	112	121
COc1ccc(NC(=O)CSc2nc3c(oc4ccccc43)c(=O)n2Cc2ccco2)cc1Cl	107	100
CCOC(=O)C1CCN(C(c2ccc(SC)cc2)c2c(O)cc(C)n(Cc3ccco3)c2=O)CC1 (stereo not given)	105	97
Cc1cccc(C)c1OCC(=O)N(Cc1ccccc1F)C1CCS(=O)(=O)C1 (stereo not given)	101	104
Cc1nn(CCCC(=O)NCc2cccc(Cl)c2)c(=O)c2c1sc1ccccc12	112	115
CCc1ccc(Sc2cc(C(=O)O)c3ccccc3n2)cc1	111	105
Cc1cc(C)cc(NC(=O)C2CCN(S(=O)(=O)c3cccc(-c4noc(C)n4)c3)CC2)c1	108	107
Cc1ccccc1CNC(=O)CCc1cn(Cc2ccccc2C)c2ccccc12	102	106
Cc1ccc(-c2onc(C)c2C)cc1S(=O)(=O)NCc1ccc(N(C)C)cc1	113	116
COc1ccc(N2CCN(c3ncnc4c3cnn4C)CC2)cc1	105	107
CCC12CN3CC(C)(CN(C1)C3c1c[nH]c3ccccc13)C2=O (stereo not given)	110	112
CCCCCn1c(CN2CCN(c3ccc(OC)cc3)CC2)nc2c1c(=O)[nH]c(=O)n2C	106	108
O=C(Nc1ccc(F)cc1)C1CCCN(c2ncnc3c2nc2n3CCCCC2)C1 (stereo not given)	102	101
Cc1ccccc1NC(=O)c1ccccc1NC(=O)c1ccccc1Cl	109	113
CCc1ccc(NC(=O)CC2C(=O)N(c3cccc(OC)c3)C(=O)N2Cc2ccco2)cc1 (stereo not given)	110	116
CCOc1ccc(NC(=O)C(CC)n2nc(C)c3c(C)n(-c4ccccc4)nc3c2=O)cc1 (stereo not given)	99	99
CC(=O)N1CCc2cc(S(=O)(=O)NC(Cc3ccccc3)C(=O)NCc3ccc(C)cc3)ccc21 (stereo not given)	103	103
Cc1c(Cl)cccc1-n1ncc(C(=O)NC2CCCCC2)c1C1CCN(C(=O)OC(C)(C)C)CC1	104	112
O=C(COc1ccc(Cl)cc1)N(Cc1ccco1)Cc1ccco1	105	108
CCc1ccc(-n2c(=O)c3sc4ccccc4c3n(Cc3cccc(F)c3)c2=O)cc1	107	110
Cc1cccn2c(=O)cc(COc3ccc(NC(=O)C(C)Oc4ccccc4)cc3)nc12 (stereo not given)	108	104
CCOC(=O)N1CCN(Cc2nc3cc([N+](=O)[O-])ccc3n2C(C)C)CC1	107	109
CC1CCCCN1c1c(S(=O)(=O)c2ccc(Cl)cc2)cnc2ccccc12 (stereo not given)	103	108
Cc1ccc(OCC(=O)Nc2ccc3nc(SCC(N)=O)sc3c2)cc1	109	113
O=C1COc2ccc(-c3cc(-c4ccc(F)cc4)c4c(n3)-c3cc(Cl)ccc3OC4)cc2N1	106	109
CN(C)c1cc2c(cc1NC(=O)c1ccc(F)cc1)n(C)c(=O)n2C	104	91
CCOc1cc(C2C(C(=O)OC)=C(C)NC3=C2C(=O)c2ccccc23)cc(Br)c1OCC (stereo not given)	106	111
COc1ccc(-c2nc3sc(CCNC(=O)C(=O)Nc4ccc(C)cc4C)c(C)n3n2)cc1	100	105
O=c1oc2ccc3ccccc3c2cc1-c1nnc(Nc2cccc(F)c2)s1	108	120
Cc1ccc(CSc2nnc(-n3c(=O)c(C#N)cc4c(=O)n5cc(C)ccc5nc43)s2)cc1	105	111
Cc1cccc(OCC(=O)Nc2cc(-c3ccccc3F)nn2-c2ccccc2)c1	106	107
CCOC(=O)CSc1nc2ccccc2n2c(C)nnc12	104	118
CCOc1ccc(-n2c(=O)c3c(C)c(C(=O)N(C)C)sc3n(CC(=O)Nc3c(C)cc(C)cc3C)c2=O)cc1	98	103
Cc1ccc(C2c3[nH]c4ccccc4c3CCN2C(=O)CCC2CCCC2)cc1 (stereo not given)	106	113
Cc1cc2c(cc1S(=O)(=O)Nc1cccc(C#N)c1)OCC(=O)N2	104	108

The list is partial; the hit share may differ from the screen's.
